Compound activity from PubChem.
NPYLR7 ag = agonists of mosquito NPYLR7 receptor, primary screen, cell-based, Aedes aegypti, calcium fluorescence, mosquito biting behavior; AID 1259423, 2018; activation, % at 10 µM; HEK293T NPYLR7/Galpha15, GCaMP6s calcium fluorescence; Aedes aegypti neuropeptide Y-like receptor 7 (NPYLR7); 270,000 compounds, 0.15% hits; in the data active = activation above about 40%;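 also: 0% = vehicle and 100% = reference agonist at the receptor; some compounds past the cut are filed as inactive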
NPYLR7 ag max-min = also measured in NPYLR7 ag; calls as there; activation, %; measured here: Max-Min RFU normalised activation; some inactives read as strong as hits;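 span of the calcium signal over five minutes; 0% = vehicle and 100% = native peptide agonist; compound fluorescence can raise it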
Numbers without * were called inactive.

Structure | NPYLR7 ag | NPYLR7 ag max-min
CN(C)CCNc1oc(-c2ccc(COc3ccccc3)o2)nc1C#N | 0 | 19
CCN(CC)CCCC(C)NC(=O)c1cc(-c2ccc(OC)cc2)nc2cc(-c3ccc(Cl)cc3)nn12 (stereo not given) | 6 | 8
CCCCN(C)S(=O)(=O)NCc1cc2ccccc2[nH]1 | -12 | -18
COc1cc(Cl)c(C)cc1NC(=O)c1ccccc1C1CCNC1 (stereo not given) | 6 | 5
Cc1ccsc1C(=O)N1CCC1(C)C(=O)Nc1ccc(Cl)c(Cl)c1 (stereo not given) | 11 | 9
COc1ccc(CCN(C)C2CCCN(Cc3nc4ccccc4nc3C)C2)cc1OC (stereo not given) | -1 | -7
N#Cc1c(NC(=O)CCCC(=O)Nc2sc3c(c2C#N)CCC3)sc2c1CCC2 | 1 | 0
Cc1ccc(Cn2c(=O)c3c(nc4n(Cc5ccco5)c(C)c(C)n34)n(C)c2=O)cc1 | 0 | 3
Cn1cc(/C=C/C(=O)NC2CC(C)(C)Cc3c2cnn3-c2ccc(F)cc2)cn1 (stereo not given) | 9 | 9
CCC(C)n1c(C)c(C)n2c3c(=O)n(CCN4CCOCC4)c(=O)n(C)c3nc12 (stereo not given) | -6 | -8
CC1CC(=O)c2c(OCC(=O)N3CCN(S(=O)(=O)c4ccc(Cl)cc4)CC3)ccc(F)c21 (stereo not given) | -1 | -3
CCCN1CCCc2cc(CCNS(=O)(=O)CC(C)C)ccc21 | 8 | 4
Clc1ccc(-c2nc(Cc3ccccc3)no2)cc1 | 5 | 5
CS(=O)(=O)NCCCNC(=O)c1cc2c(s1)-c1ccccc1CC2 | 6 | 3
Cc1cccc(C(=O)N2N=C3CCCCC3C2(O)C(F)(F)F)c1O (stereo not given) | 4 | 1
Cc1cc(C(=O)N(CC2CCN(Cc3ccccc3F)CC2)CC2CCCO2)c(C)o1 (stereo not given) | 15 | 12
COCCN(CC(=O)Nc1nc(CC(=O)NCc2cccc(C(F)(F)F)c2)cs1)C(=O)c1ccc(Cl)cc1 | 9 | 5
O=C(COc1ccc(F)cc1)N1CCN(c2ccc3nnc(C4CC4)n3n2)CC1 | 0 | 4
CC1CCN(S(=O)(=O)c2ccc3c(c2)CN(C(=O)C(F)(F)F)CC3)CC(C)(C)C1 (stereo not given) | -9 | -12
Cc1ccc(-c2csc(-n3[nH]c(C)c(N=Nc4ccc(Cl)cc4C(=O)c4ccccc4)c3=O)n2)cc1 | 26 | 32
c1cnc(-c2cc(NC3CCNCC3)nc3[nH]ccc23)nc1 | 30 | 10
Cc1cccc(C)c1OCCn1ccnc1-c1cccnc1 | 8 | 7
COc1ccc(Cl)cc1NC(=O)CCC1CCCN(C(=O)c2csc(C)n2)C1 (stereo not given) | 19 | 10
CCCCCN(CC(=O)N(CCCC)Cc1cccn1Cc1ccc(Br)cc1)C(=O)c1cccc(F)c1 | 1 | 17
COc1ccc(C2CC(c3ccccc3)=NN2C(=O)CN2CCN(c3ccccc3F)CC2)c(OC)c1 (stereo not given) | 13 | 14

Part of the list above, with each value named.
> O=C(COc1ccc(F)cc1)N1CCN(c2ccc3nnc(C4CC4)n3n2)CC1
  NPYLR7 ag: 0	NPYLR7 ag max-min: 4

> CC1CCN(S(=O)(=O)c2ccc3c(c2)CN(C(=O)C(F)(F)F)CC3)CC(C)(C)C1 (stereo not given)
  NPYLR7 ag: -9	NPYLR7 ag max-min: -12

> Cc1ccc(-c2csc(-n3[nH]c(C)c(N=Nc4ccc(Cl)cc4C(=O)c4ccccc4)c3=O)n2)cc1
  NPYLR7 ag: 26	NPYLR7 ag max-min: 32

> c1cnc(-c2cc(NC3CCNCC3)nc3[nH]ccc23)nc1
  NPYLR7 ag: 30	NPYLR7 ag max-min: 10

Going on with the list:
Structure | NPYLR7 ag | NPYLR7 ag max-min
c1cc2c(cc1-c1nnc3n1CCCCC3)OCCO2 | -2 | -5
COc1cc(C2CC(=O)N(CC(=O)c3ccccc3)c3ccccc3S2)cc(OC)c1OC (stereo not given) | -3 | -5
CC(=O)Nc1ccc(-c2c(-c3ccccc3F)nn(-c3cccc(F)c3)c2OC(C)=O)cc1 | -2 | 3
CCN1C(=S)NC(c2cccc(NS(C)(=O)=O)c2)C(C(=O)OCCOC)=C1C (stereo not given) | 10 | 14
COCCN1CCN(C(=O)CN2CC3=C(C2=O)C(c2ccccc2C(F)(F)F)NC(=O)N3C)CC1 (stereo not given) | 2 | 15
COc1ccc(/C=C/C(N)=O)cc1F | 2 | 1
O=C(Nc1c(-c2ccccc2)nc2ccccn12)C1CCCC1 | -6 | -7
COc1ccc(CCNC(=O)C(=O)NCC2CCCN2S(=O)(=O)c2cc(C)ccc2C)cc1 (stereo not given) | -4 | -2
O=C(c1ccncc1)N1CCN(S(=O)(=O)c2ccc3c(c2)OCCO3)CC1 | 4 | 4
Cc1ccccc1NC(=O)N1CCC(CCc2ccc(-c3ccccc3)cc2)CC1 | 2 | 13
CC12CC3CC(C1)CC(C(=O)O)(C3)C2 | -8 | -17
Cc1nc(C#N)c(N/N=C\c2ccc(N(C)C)cc2)o1 | -9 | -12
CS(=O)(=O)NN1C(=O)c2ccccc2NC12CCCCC2 | 1 | 30
CCOC1CC1C(=O)Nc1nc2ccccc2n1-c1ccccc1 (stereo not given) | 0 | -3
CN1OC(C)(CC(=O)NCc2cccc(O)c2)N=C1c1ccccc1Cl (stereo not given) | -5 | -6
COCCN(Cc1nccn1Cc1c(F)cccc1Cl)C(=O)NC(C)(C)C | 5 | 6
CCOC(=O)c1nc2ccccc2nc1N1CCCN(C(=O)C(F)(F)C(F)(F)C(F)(F)F)CC1 | 5 | 4
CC(C)(C)OC(=O)n1nc(-c2ccccc2)c(N)c1C1CC1 | 27 | 13
CCOC(=O)c1c(NC(=O)c2cccnc2)sc(C)c1-c1ccccc1 | -3 | -7
COCCNC(=O)C(NC(=O)c1ccc(OC)cc1)C1CCN(C(=O)c2ccco2)CC1 (stereo not given) | 10 | 11
CC(C)c1cc(C(=O)NCc2ccccc2CN2CCCC2=O)n(C)n1 | 4 | 1
COc1cccc(CN2CCn3nc(C(=O)Nc4ccc5c(c4)CCC5)cc3C2=O)c1 | 21 | 7
CSc1nnc(SCc2nnsc2Cl)s1 | 11 | 8
COc1ccccc1C(=O)OCCN=C1NS(=O)(=O)c2ccccc21 | 5 | 2
CC(C)N(Cc1ccc(OS(=O)(=O)c2ccc(F)cc2)cc1)S(=O)(=O)c1ccccc1 | 22 | 22

Going on with the list:
Structure | NPYLR7 ag | NPYLR7 ag max-min
CC(C)CCn1c(CCNC(=O)C2CCCCC2)nc2ccccc21 | -8 | -6
CC(C)NC(=O)CSCc1ccc(F)cc1Br | 0 | -1
COc1ccccc1-c1cccc(C(=O)N2CCCC(N(C)C)CC2)c1 (stereo not given) | -1 | -2
CCOC(=O)c1nc2cc(C)c(C)cc2nc1N1CCN(C(=O)C2=COc3ccc(Cl)cc3C2)CC1 | 0 | 0
CCOc1ccc(C=C(C#N)C(=O)C(C)(C)C)cc1OC | 4 | 4
CCCN=C(NC(=O)c1cccc(F)c1)OCCC | 11 | 12
CN(CCCc1cnn(C)c1)C(=O)c1ccc2c(c1)OCO2 | -5 | -13
Cc1cc(=O)[nH]c(-n2nc(C)c(CCC(=O)NCc3c(F)cccc3F)c2C)n1 | 11 | 2
CCC(=O)c1ccc(OCC(=O)Nc2ccccc2C(=O)N2CCCCC2)cc1 | -4 | -4
CCc1cn[nH]c1C1CCCN(C(=O)c2cnc(-c3cccnc3)nc2)C1 (stereo not given) | 8 | 6
O=C(Nn1cnc2c(cnn2-c2ccccc2)c1=O)C1(c2ccc(Cl)cc2)CCCC1 | 6 | 7
COc1ccc(S(=O)(=O)N2CCC(Cc3ccccc3)CC2)cc1N1CCN(C(=O)c2ccc([N+](=O)[O-])o2)CC1 | -3 | -10
O=S(=O)(C1=Cc2ccccc2CC1)N1CCCC(c2nc3ccccc3s2)C1 (stereo not given) | 2 | 8
CCNC/C=C/COc1ccc(C)c(C)c1 | -5 | -5
O=C(NCc1cccnc1)c1cc(S(=O)(=O)N2CCCCC2)ccc1Cl | -8 | -14
COc1cc(-c2ccc(=O)n(CC(=O)Nc3cccc(C(F)(F)F)c3)n2)cc(OC)c1OC | 11 | 9
O=C(CCN1CCC(OCc2cccnc2)CC1)NC1CCCCCC1 | -3 | -11
CN(C)CCN(Cc1nccn1Cc1ccc(Cl)c(Cl)c1)C(=O)c1ccccc1F | 4 | 6
COc1ccccc1/C=C/C=N\NC(=O)CSc1nc2ccccc2[nH]1 | 10 | 8
Cc1ccc(CC2(C)C(=O)Nc3ccc(OC(F)(F)F)cc32)cc1 (stereo not given) | 4 | 5
COc1ccc(OC)c(-c2nc3ccc(Cl)cn3c2NC(C)(C)CC(C)(C)C)c1 | -6 | -5
Cc1cc(-c2nnc(NC(=O)Cc3ccc(S(C)(=O)=O)cc3)o2)n(C)n1 | -7 | -7
O=C(O)CNC(=O)CN1C(=O)c2ccccc2C1=O | 1 | -5
Cn1nc(C(=O)N2CCNC(=O)C2CCO)c2ccccc21 (stereo not given) | 1 | -12
COc1ccccc1CN(Cc1cccc(C(F)(F)F)c1)Cc1nc(C(=O)NCCN2CCOCC2)co1 | 16 | 21

Filtered by structure, the entries above with a COOH group.
Structure | NPYLR7 ag | NPYLR7 ag max-min
CC12CC3CC(C1)CC(C(=O)O)(C3)C2 | -8 | -17
O=C(O)CNC(=O)CN1C(=O)c2ccccc2C1=O | 1 | -5

(more compounds)
Structure | NPYLR7 ag | NPYLR7 ag max-min
Oc1ccc2ccccc2c1C=NNC1=NCCC1 | 5 | 5
CCn1c(=O)c2c(nc3n2CC(C)CN3c2cccc(Cl)c2C)n(C)c1=O (stereo not given) | 0 | 4
CC(=O)NCc1ccccc1-n1ccnc1C | -19 | -25
CCNC(=O)[C@@H]1C[C@@H](N)CN1C(=O)COc1ccccc1OC | 16 | 10
CC(C)(C)n1nc(C(=O)Nc2ccnn2CC2CCOC2)cc1C1CC1 (stereo not given) | 5 | 4
CN1CCCC1CCNC(=O)c1ccc(-c2cc(-c3ccc(Cl)cc3)[nH]n2)cc1 (stereo not given) | 4 | 4
CCc1ccc(-c2nccn2Cc2cccnc2)nc1 | 16 | 10
O=C(CSc1nc2c(c(=O)n1CCc1ccccc1)SCC2)Nc1cccc2ccccc12 | 35 | 23
CCC(Nc1nc(-c2ccncc2)nc2c1CCNCC2)c1cnn(C)c1 (stereo not given) | 12 | 5
COc1ccc(CCN(C)Cc2nc(C3(c4ccc(C)cc4)CCCC3)no2)cc1OC | -1 | -6
CCOC(=O)c1[nH]ncc1CN1CCCC(C(=O)c2cc(F)ccc2OC)C1 (stereo not given) | -2 | -8
CN(C)CCNC(=O)c1coc(CN(Cc2ccc(C(F)(F)F)cc2)Cc2ccc3c(c2)OCO3)n1 | 14 | 13
N#CC(C#N)=C1C=C(c2ccc(O)cc2)Oc2ccccc21 | 40 | 65
CSC1=NC2C(C(C)=O)C(=O)N(c3ccccc3)C2NN1 (stereo not given) | 0 | 37
O=C(NCc1cccc(C(F)(F)F)c1)c1cc(-c2ccccc2Cl)nc2cc(-c3ccccc3)nn12 | -15 | -3
COc1ccc(-c2ccc(C(=O)N3CC[C@@H]4CC[C@H](C3)N4C)o2)cc1 | 3 | -2
Cc1nc2sccn2c(=O)c1S(=O)(=O)NCc1ccco1 | 4 | 2
CC(NC(=O)c1ccc(Cl)c([N+](=O)[O-])c1)c1ccccc1 (stereo not given) | -7 | -8
Cc1cc(Oc2cnn(-c3cccc(F)c3)c(=O)c2Nc2cccc(C(=O)NCc3ccco3)c2)ccc1Cl | 12 | 9
Cc1nnc(SCC(=O)c2ccc(Br)s2)s1 | 1 | -3
CS(=O)(=O)Oc1ccccc1CN(C(=O)c1cccs1)C1CC1 | 21 | 25
NS(=O)(=O)c1ccc(NC(=O)c2nc(-c3cnccn3)no2)cc1 | 4 | 2
Nc1cc(C(=O)O)ccc1NCC1CCCO1 (stereo not given) | 1 | 0
CCc1cnc(N2CCn3nc(C(=O)NCc4ccccn4)cc3C2)nc1 | 0 | -8
O=C(CSc1nnc(CNC(=O)c2ccco2)n1-c1cccc(C(F)(F)F)c1)Nc1ccc(F)cc1 | 9 | 7

Following part
Structure | NPYLR7 ag | NPYLR7 ag max-min
Cc1cc(-c2ccccc2)nc2cc(C(=O)Nc3ccc(O)cc3)nn12 | 6 | 3
Cc1nc(CN2CC(OCc3ccncc3)CN(Cc3cnn(C)c3)CC2=O)cs1 (stereo not given) | 1 | -4
Cc1cc(=O)[nH]c(-n2nc(C3CC3)cc2NC(=O)C2c3ccccc3Oc3ccccc32)n1 | 1 | 0
O=C(c1cccc(NCc2cccs2)c1)N1CCC[C@H]1CO | 12 | 7
COc1ccc(CN(CCc2c[nH]c3ccccc23)C(=O)CN(CC(C)C)C(=O)CSc2ccccc2)cc1 | 17 | 18
Cc1n[nH]c(C)c1CCCNC1CCN(c2ccc3c(c2)OCO3)CC1 | 13 | 8
C=C(C)Cn1c(N=Nc2c(O)[nH]c3ccc(Br)cc23)nc2c1c(=O)[nH]c(=O)n2C | -2 | 50
Cc1ccc2c(c1)CN(Cc1ccccc1O)CC(c1ccsc1)O2 (stereo not given) | 30 | 21
COc1ccccc1C1=NOC(CN(Cc2ccccc2Cl)C(=O)C2CCCC2)C1 (stereo not given) | 25 | 25
CC(=O)Nc1ncc(Cc2ccc(F)cc2)s1 | -8 | -11
O=C(Nc1cccc(C(F)(F)F)c1)c1cccn(OCc2cccc(Cl)c2)c1=O | 16 | 15
O=S(=O)(Nc1nc2ccc(F)cc2s1)c1ccc(Cl)s1 | -1 | 20
Cc1cccc(Oc2cc(N3CCC(Cc4ccccc4)CC3)ncn2)c1 | -6 | 9
N#Cc1ccc(CSc2nnc3[nH]c(=O)cc(N)n23)cc1 | 4 | 4
COc1ccc2c(c1)OC/C(=C/c1ccc(OC)c(OC)c1)C2=O | -7 | -12
CCn1c(SCC(=O)Nc2cccc3ccccc23)nc2c(c1=O)SC(C)C2 (stereo not given) | -5 | -7
CC(C)(C)c1ccc(NC(=O)C2CC=CCC2C(=O)N2CCc3ccccc3C2)cc1 (stereo not given) | -4 | -14
Cc1cc(C(=O)N(C)C(C)c2nccs2)nc(C)n1 (stereo not given) | 5 | 5

Not all compounds are listed. The share of hits here may be higher or lower than overall.
